PrP UTR inh: inhibition of PrP 5' UTR reporter expression; 0.35% of 340,000 active; AID 488862, 2010; cell-based PrP 5' UTR mRNA reporter, plate reader; inhibition, % (no concentration beside the values);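 active means every replicate at 50% or more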;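 further: 0 = median of the neutral control wells; tested in H4 reporter cells; numbers are from one replicate; inactives centre near -14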
Sa RN4220 lethal: growth inhibition of S. aureus RN4220, primary screen, OD600; 16 h; inhibition, % (test concentration not listed); 0.33% of 330,000 active; AID 1259311, 2017;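 active means z-score of -3 or lower and OD600 up to 0.18 on both plates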;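 further: plate controls were untreated cells for no effect and reference antibiotic for full effect; stock transfer was 100 nL into about 80 µL; one replicate is shown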
Sa ugtP lethal: growth inhibition of ugtP-null S. aureus, primary screen, RN4220 ugtP deletion, OD600; 16 h; some inactives read as strong as hits; growth inhibition, % (test concentration not listed); 0.54% of 330,000 active; AID 1259309, 2017;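 active means z-score under -3 and OD600 up to 0.15 on both plates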;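 further: plate controls were untreated wells for no effect and antibiotic for full effect; wells of about 80 µL received 100 nL stock; the first replicate is given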
Bead autofluor: compound fluorescence in toxin protease inhibitor counterscreen; compound autofluorescence counterscreen, microsphere flow cytometry; hits give high values; fluorescence intensity (concentration not given with the values); 3.1% of 360,000 active; AID 624483;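 active means at least 3 SD above the mean of all compounds, about 16000 in these data; inconclusive means too few beads counted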;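 further: 100 nL of 1 mM stock went into each well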
Mtb hypoxia rep: PubChem AID 1159583; M. tuberculosis hypoxia-regulated fluorescent reporter, fluorescence; fluorescence inhibition, % (concentration not given with the values); 0.1% of 300,000 active;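 active means 35 to 45% if threefold the growth effect, above 45% if 1.5-fold the growth effect; inactive means the rest, general growth blockers included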;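 further: wells of about 50 µL received 100 nL stock; 0% = vehicle wells and 100% = reference inhibitor wells; whole bacteria with a GFP reporter of the hypoxia response; strong numbers were not always called active; many hits fall short of the cut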
BJeLR lethal: MLPCN primary cell-based screen for lethality selective to Ras in HRASV12 cells | AID 1554, 2009 | BJeLR (HRASV12) viability, CellTiter-Glo ATP luminescence, 48 h; reference of the scale not given here | 0.17% of 300,000 active | inhibition, % (test concentration not listed);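 active means replicate mean above 50%; inconclusive means above 50% but judged a plate artefact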;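 further: 50 nL library stock added to about 25 µL; numbers are from one replicate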
Mtb hypoxia rep growth: further read-out of Mtb hypoxia rep, marked with its call; growth inhibition, %; measured here: M. tuberculosis growth (absorbance);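 0% = vehicle and 100% = reference antibiotic; read after six days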
The depositor's hits bear a star. This is a random part of the collection; about 4.1% have a hit in one of these screens.

`Cc1cc(C)c2nc(SC(C)C(=O)NCC(=O)Nc3ccc(F)c(F)c3F)cc(C)c2c1` (stereo unspecified) gave PrP UTR inh -19.0, Sa RN4220 lethal 23.9, Sa ugtP lethal -18.0, Bead autofluor 2686, Mtb hypoxia rep 0.1, BJeLR lethal -1.9 and Mtb hypoxia rep growth -1.2.
Screening Cc1nc2ccccn2c(=O)c1NC(=O)c1cccc2ccccc12 returned PrP UTR inh -18.1, Sa RN4220 lethal 6.3, Sa ugtP lethal -0.7, Mtb hypoxia rep -6.2, BJeLR lethal 5.8 and Mtb hypoxia rep growth -1.0.
For COCCN(C(=S)Nc1ccc(C)cc1C)C(C)c1ccco1 (stereo unspecified) the results were PrP UTR inh -10.9, Sa RN4220 lethal 2.4, Sa ugtP lethal 6.0, Bead autofluor 4985, Mtb hypoxia rep 3.4, BJeLR lethal 7.4 and Mtb hypoxia rep growth 0.7.
Fc1ccc(Cn2nnc(-c3ccc(CN4CCOCC4)cc3)n2)cc1 was read as PrP UTR inh -27.0, Sa RN4220 lethal 1.4, Sa ugtP lethal 2.9, Bead autofluor 6413, Mtb hypoxia rep 9.7, BJeLR lethal 8.9 and Mtb hypoxia rep growth 0.6.
C=CCN1C(=O)C(CC(=O)Nc2ccccc2)S/C1=N/c1nccs1 (stereo unspecified) was read as PrP UTR inh -12.1, Bead autofluor 4582 and BJeLR lethal 14.7.
COc1ccc(OC)c(-n2c(-c3cc(-c4ccco4)[nH]n3)n[nH]c2=S)c1 was read as PrP UTR inh -16.1, Sa RN4220 lethal 1.7, Sa ugtP lethal 3.2, Bead autofluor 4204, Mtb hypoxia rep 25.7, BJeLR lethal 11.7 and Mtb hypoxia rep growth 23.3.
Screening O=C(OCCCN1CCOCC1)c1ccc(O)c(O)c1 returned PrP UTR inh 4.4, Sa RN4220 lethal 3.6, Sa ugtP lethal 0.4, Bead autofluor 3433, Mtb hypoxia rep 4.6, BJeLR lethal -0.7 and Mtb hypoxia rep growth -4.1.
For CC(C)NC(=O)Cn1cnc2c1c(=O)n(C)c(=O)n2C the results were PrP UTR inh -14.5, Sa RN4220 lethal 4.1, Sa ugtP lethal 7.3, Bead autofluor 4232 and BJeLR lethal -6.4.
Screening COc1ccc(S(=O)(=O)N(C)CC(=O)NCc2cccnc2)cc1 returned PrP UTR inh -8.5, Sa RN4220 lethal 3.8, Sa ugtP lethal 9.1, Bead autofluor 4791 and BJeLR lethal 2.7.
CCOC(=O)C(NCc1ccc(F)cc1)(NC(=O)c1ccccc1)C(F)(F)F (stereo unspecified) was read as PrP UTR inh -19.7, Sa RN4220 lethal -1.8, Sa ugtP lethal -11.4, Bead autofluor 3823, Mtb hypoxia rep 0.9, BJeLR lethal -1.7 and Mtb hypoxia rep growth 6.9.
For O=C(Nc1cccc2nsnc12)c1ccc(F)cc1 the results were PrP UTR inh -20.8, Sa RN4220 lethal 9.6, Sa ugtP lethal -6.7, Bead autofluor 4211 and BJeLR lethal -0.8.
Cc1ccc(C)n1-c1ccc(C#N)cn1 was read as PrP UTR inh -6.4, Sa RN4220 lethal 9.8, Sa ugtP lethal 2.8, Bead autofluor 3227, Mtb hypoxia rep -2.1, BJeLR lethal -4.7 and Mtb hypoxia rep growth -2.8.
`CCN(CC(=O)Nc1c(F)cccc1F)C(=O)CNC(=O)COc1ccccc1` gave PrP UTR inh 3.7, Bead autofluor inconclusive and BJeLR lethal -11.4.
Screening COc1ccc(S(=O)(=O)N(CC(=O)NCc2ccncc2)c2ccc(C)cc2)cc1Br returned PrP UTR inh -3.3, Sa RN4220 lethal 2.8, Sa ugtP lethal -3.3, Bead autofluor 3253, Mtb hypoxia rep 6.7, BJeLR lethal -5.4 and Mtb hypoxia rep growth -1.8.
Screening CCCCN(C(=O)c1cccc(S(=O)(=O)N2CCCCC2)c1)C1CCS(=O)(=O)C1 (stereo unspecified) returned PrP UTR inh -14.4, Sa RN4220 lethal 4.6, Sa ugtP lethal 3.0, Bead autofluor 5191, Mtb hypoxia rep 4.6, BJeLR lethal -2.6 and Mtb hypoxia rep growth 2.4.
O=C(NN=Cc1c[nH]c2ccccc12)c1cccs1 was read as Sa RN4220 lethal 5.3, Sa ugtP lethal 0.9, Mtb hypoxia rep 4.8 and Mtb hypoxia rep growth 1.5.
Screening Cc1nc2c(cc1NC(=O)C(C)(C)C)nc(C)n2Cc1ccccc1 returned PrP UTR inh -17.5, Sa RN4220 lethal 3.2, Sa ugtP lethal 2.2, Bead autofluor 3568, Mtb hypoxia rep -4.5, BJeLR lethal -3.2 and Mtb hypoxia rep growth 3.5.
`Cn1c(CSCc2ccc(Cl)cc2)nnc1SCC(=O)Nc1nccs1` gave PrP UTR inh -2.2, Sa RN4220 lethal 5.0, Sa ugtP lethal 5.5, Bead autofluor 16354*, Mtb hypoxia rep -2.5, BJeLR lethal 0.1 and Mtb hypoxia rep growth 1.3.
Screening CN(Cc1nc2ccccc2c(=O)[nH]1)CC(O)COCc1ccco1 (stereo unspecified) returned PrP UTR inh -8.5, Sa RN4220 lethal -1.9, Sa ugtP lethal 8.0, Bead autofluor 5168 and BJeLR lethal -5.6.
Screening CN(Cc1ccccc1Br)C(=O)CSc1nnnn1C1CC1 returned PrP UTR inh -11.5, Sa RN4220 lethal 4.5, Sa ugtP lethal 0.9, Bead autofluor 5099, Mtb hypoxia rep 4.7 and Mtb hypoxia rep growth 7.9.
`Cc1cc(C)n(CCCNC(=O)c2ccc(C)o2)n1` gave PrP UTR inh -6.8, Sa RN4220 lethal 1.5, Sa ugtP lethal 6.4, Bead autofluor 8494, Mtb hypoxia rep -0.8 and Mtb hypoxia rep growth 7.2.
`O=C(c1ccc(CS(=O)c2cccc(Cl)c2)o1)N1CCCCCC1` (stereo unspecified) gave PrP UTR inh -9.2, Sa RN4220 lethal 2.3, Sa ugtP lethal -3.6, Bead autofluor 5483, Mtb hypoxia rep 6.8, BJeLR lethal -4.0 and Mtb hypoxia rep growth 10.5.
Screening CCOC(=O)/C=c1/s/c(=C\c2c(OC)ccc3ccccc23)c(=O)n1CC(=O)NCC1CCCO1 (stereo unspecified) returned PrP UTR inh 8.1, Sa RN4220 lethal 2.8, Sa ugtP lethal -5.2, Bead autofluor 3895, Mtb hypoxia rep -5.4 and Mtb hypoxia rep growth 7.5.
CCOc1ccc(/C=C/C(=O)NC2CCCCC2)cc1 was read as PrP UTR inh -15.2, Sa RN4220 lethal 0.5, Sa ugtP lethal 5.6, Bead autofluor 3022, Mtb hypoxia rep 18.9, BJeLR lethal -5.2 and Mtb hypoxia rep growth 9.0.
C/C(=C\c1ccc(Cl)cc1)C(=O)c1c(C)cc(C)[nH]c1=O was read as PrP UTR inh -11.6, Sa RN4220 lethal 0.2, Sa ugtP lethal 2.9, Bead autofluor 4134, Mtb hypoxia rep 3.4, BJeLR lethal -1.6 and Mtb hypoxia rep growth -9.4.
Screening C=CCn1c(COc2ccccc2)nnc1SC(C)C(=O)N/N=C/c1cc(Cl)ccc1O (stereo unspecified) returned PrP UTR inh -12.6, Bead autofluor 2664 and BJeLR lethal 1.0.
For O=C(O)c1cccc(Cn2c(Cl)c(C=NNC(=O)c3ccc(O)cc3)sc2=O)c1 the results were Sa RN4220 lethal -2.2, Sa ugtP lethal 1.7, Mtb hypoxia rep 13.3 and Mtb hypoxia rep growth 3.9.
For Cn1cc(CNC(=O)c2cc(-c3ccc(Br)cc3)nc3ccccc23)cn1 the results were PrP UTR inh -11.7, Sa RN4220 lethal 2.9, Sa ugtP lethal -3.2, Bead autofluor 3095, Mtb hypoxia rep 2.2, BJeLR lethal -2.5 and Mtb hypoxia rep growth 0.6.
COc1cc(NS(=O)(=O)c2ccc(NC(=O)c3ccc(S(=O)(=O)N4CCCCC4)cc3)cc2)ncn1 was read as PrP UTR inh -8.0, Sa RN4220 lethal 3.3, Sa ugtP lethal 4.5, Bead autofluor 3918, Mtb hypoxia rep 2.2, BJeLR lethal -8.9 and Mtb hypoxia rep growth 3.1.
CCOC(=O)[C@@H]1[C@H]2COc3ccccc3[C@@H]2N2C(=O)N(c3ccc(F)cc3)C(=O)[C@]12C was read as PrP UTR inh -8.7, Bead autofluor 4048 and BJeLR lethal 9.7.
CCCn1cnc2cc(NCc3ccccc3O)ccc21 was read as PrP UTR inh -21.5, Sa RN4220 lethal 6.1, Sa ugtP lethal 8.4, Bead autofluor 3733, Mtb hypoxia rep 15.5, BJeLR lethal 8.3 and Mtb hypoxia rep growth 2.6.
COc1ccccc1NC(=O)NNC(=O)c1ccc2ccccc2c1O was read as PrP UTR inh -12.6, Sa RN4220 lethal -1.1, Sa ugtP lethal 4.3, Bead autofluor 5416, Mtb hypoxia rep 9.7, BJeLR lethal -0.1 and Mtb hypoxia rep growth 5.4.
Screening CCOC(=O)CSc1nnc([C@H](Cc2ccccc2)NC(=O)OC(C)(C)C)o1 returned PrP UTR inh -2.5, Sa RN4220 lethal -0.6, Sa ugtP lethal -1.4, Bead autofluor 6362 and BJeLR lethal -4.3.
Screening CC1=C(C(N)=O)C(c2ccc3c(c2)OCO3)n2nc(-c3cccc(C)c3)nc2N1 (stereo unspecified) returned PrP UTR inh -21.1, Sa RN4220 lethal 7.0, Sa ugtP lethal 5.4, Bead autofluor 7923, Mtb hypoxia rep 9.4, BJeLR lethal -21.8 and Mtb hypoxia rep growth 13.1.
`Cc1csc(NC(=O)c2cc3c(s2)-c2ccccc2OC3)n1` gave PrP UTR inh -59.4, Sa RN4220 lethal -4.8, Sa ugtP lethal 15.1, Bead autofluor 5374, Mtb hypoxia rep 0.6, BJeLR lethal 5.1 and Mtb hypoxia rep growth 4.6.
`CCCc1nnc(NC(=O)CCC(=O)N2CCC(C)CC2)s1` gave PrP UTR inh -19.4, Sa RN4220 lethal 1.5, Sa ugtP lethal 2.3, Bead autofluor 5378, Mtb hypoxia rep -2.5, BJeLR lethal -9.0 and Mtb hypoxia rep growth 5.7.

2 records picked at random from those above:
COc1ccccc1NC(=O)NNC(=O)c1ccc2ccccc2c1O was read as PrP UTR inh -12.6, Sa RN4220 lethal -1.1, Sa ugtP lethal 4.3, Bead autofluor 5416, Mtb hypoxia rep 9.7, BJeLR lethal -0.1 and Mtb hypoxia rep growth 5.4.
C/C(=C\c1ccc(Cl)cc1)C(=O)c1c(C)cc(C)[nH]c1=O was read as PrP UTR inh -11.6, Sa RN4220 lethal 0.2, Sa ugtP lethal 2.9, Bead autofluor 4134, Mtb hypoxia rep 3.4, BJeLR lethal -1.6 and Mtb hypoxia rep growth -9.4.

Going on with the list:
For Cn1ccnc1SCC(=O)Nc1cccc(S(=O)(=O)N2CCCCC2)c1 the results were PrP UTR inh -5.9, Sa RN4220 lethal 6.4, Sa ugtP lethal 6.5, Bead autofluor 3302, Mtb hypoxia rep 13.3, BJeLR lethal 6.5 and Mtb hypoxia rep growth 2.0.
CC1CCC(C(C)C)C(OC(=O)Cn2c(-c3ccc(F)cc3)[n+](C)c3ccccc32)C1 (stereo unspecified) was read as PrP UTR inh -39.8, Sa RN4220 lethal 96.9*, Sa ugtP lethal 100.2* and Bead autofluor 2052.
CC(C(=O)c1ccccc1)n1c(N2CCOCC2)nc2c1c(=O)n(C)c(=O)n2C (stereo unspecified) was read as PrP UTR inh -5.3, Sa RN4220 lethal -5.2, Sa ugtP lethal -5.6, Bead autofluor 2058 and BJeLR lethal 5.3.
Nc1cnccc1C(=O)O was read as PrP UTR inh -9.9, Sa RN4220 lethal 4.7, Sa ugtP lethal 2.3, Bead autofluor 4473 and BJeLR lethal 2.5.
`O=C(Nc1cccc2ccccc12)NC1CCCCC1O` (stereo unspecified) gave PrP UTR inh -2.0, Sa RN4220 lethal 2.1, Sa ugtP lethal 0.3, Bead autofluor 3724, Mtb hypoxia rep 1.7, BJeLR lethal -0.7 and Mtb hypoxia rep growth 7.2.
CCN(CC(=O)NC1CCS(=O)(=O)C1)S(=O)(=O)c1ccc(Br)cc1 (stereo unspecified) was read as PrP UTR inh -18.6, Sa RN4220 lethal -2.1, Sa ugtP lethal 0.3, Bead autofluor 3876, Mtb hypoxia rep 5.9 and Mtb hypoxia rep growth 6.1.
CCN(CC)Cc1c(C(=O)N/N=C/c2cccc3ccccc23)nnn1-c1nonc1N was read as PrP UTR inh -14.6, Bead autofluor 3439 and BJeLR lethal -1.1.
For CCCN(Cc1cc2cccc(C)c2[nH]c1=O)S(C)(=O)=O the results were PrP UTR inh -25.3, Sa RN4220 lethal -2.5, Sa ugtP lethal 0.0, Bead autofluor 11322, Mtb hypoxia rep -7.1, BJeLR lethal 0.6 and Mtb hypoxia rep growth 0.5.
